StopGo RLuc – Primary qHTS Assay for Foot and Mouth Disease Virus Antivirals against NCGC Sytravon and CBC Compound Libraries: Renilla Luciferase Signal; HEK cells with a luciferase reporter of 2A StopGo recoding; Potency, µM (doses to about 57.5 µM), without a hit: at the highest dose signal change, negative = less light; 0.32% of 120,000 active; active means well fitted falling curve with a large enough effect; inconclusive means small, poorly fitted or top-dose-only effect; inactive means no such curve, though single readings can be large or run the other way; also: nearly all actives have a fitted effect of over 55% in size; overnight with compound
2A firefly – Primary qHTS Assay for Foot and Mouth Disease Virus Antivirals against NCGC Sytravon and CBC Compound Libraries: Firefly Luciferase Signal; HEK cells with a luciferase reporter of 2A StopGo recoding; 0.23% of 120,000 active; Potency, µM (highest dose often 57.5 µM), without a hit: at the highest dose signal change, negative = less light; AID 1745856, 2022; active = well fitted falling curve with a large enough effect; inconclusive = small, poorly fitted or top-dose-only effect; inactive = no such curve, though single readings can be large or run the other way; also: nearly all actives have a fitted effect of over 60% in size; overnight with compound
The depositor's hits bear a star; [ ] = dose if it differs, or a comment. % is scaled to controls: 0 for no effect and ±100 for the full control effect; potency is read from the fitted curve at half-maximal effect. A portion of the library (hit frequency here may not be typical).

`CCOc1ccc(-c2c(C)nn3c(C)c(C(=O)NCC(C)c4ccccc4)cnc23)cc1OCC` (stereo not given) gave StopGo RLuc -6.5% and 2A firefly -13.4%.
CCc1ccc2c(Cn3nc(C)c(C)c(C#N)c3=O)cc(=O)oc2c1 was read as StopGo RLuc 4.8% and 2A firefly 11.2%.
CNC(=O)NC(=O)CN(Cc1ccc(C)cc1)C1CC1 was read as StopGo RLuc 0.0% and 2A firefly -3.8%.
For CC(C)(C)CC(=O)Nc1sccc1C#N the results were StopGo RLuc 7.2% and 2A firefly -1.6%.
COc1ccc(Cl)cc1C1CC(=O)Nc2cc3c(cc21)OCCO3 (stereo not given) was read as StopGo RLuc -5.7% and 2A firefly 11.7%.
For Cc1ccc(C)c(N2CCN(CCCNC(=O)c3ccc4nc(N5CCCCC5)sc4c3)CC2)c1 the results were StopGo RLuc -0.8% and 2A firefly 49.3%[activator].
Screening O=C(/C=C/c1cccc([N+](=O)[O-])c1)OCC(=O)c1ccc(OC(F)F)cc1OC(F)F returned StopGo RLuc -3.4% and 2A firefly -1.4%.
Screening Cn1c(=O)c2c(nc(Cl)n2Cc2ccccc2Cl)n(C)c1=O returned StopGo RLuc -1.3% and 2A firefly 0.4%.
O=C(Cc1n[nH]c(=O)c2ccccc12)N1CCN(Cc2cccc3ccccc23)CC1 was read as StopGo RLuc inconclusive and 2A firefly inconclusive.
`Cc1ccc(NCC(=O)Nc2cc(Cl)ccc2-n2cncn2)cc1F` gave StopGo RLuc 50.0%[activator] and 2A firefly -3.3%.
`Cc1c(Cl)cccc1NC(=O)N1CCC(CN2CCOCC2)CC1` gave StopGo RLuc -7.4% and 2A firefly -5.5%.
COc1ccc2nc(SCC(O)c3cccc(Br)c3)[nH]c2c1 (stereo not given) was read as StopGo RLuc 47.7%[activator] and 2A firefly 21.6%.
Cc1ccc(-c2nc(Cn3c(=O)cc(-c4ccccc4)c4c(C)nn(C)c43)c(C)o2)cc1 was read as StopGo RLuc 8.2% and 2A firefly 15.2%.
`COc1ccc2nc(C)c(C(=O)NC34CC5CC(CC(C5)C3)C4)cc2c1` gave StopGo RLuc -11.1% and 2A firefly -3.7%.
For Cc1c(CNC2CCCCCC2)c(C(=O)O)c(C)n1Cc1c(F)cccc1Cl the results were StopGo RLuc 5.8% and 2A firefly -21.9%.
Screening COC(=O)/C=C/c1ccc(OS(=O)(=O)c2ccc3c(c2)OCCCO3)c(OC)c1 returned StopGo RLuc 25.4% and 2A firefly -1.6%.
`Cc1cccc(OC(C)C(=O)Nc2ncn[nH]2)c1` (stereo not given) gave StopGo RLuc -10.4% and 2A firefly -1.2%.
CCOc1cc2sc(N3CCC(C(=O)Nc4ccc(C(C)C)cc4)CC3)nc2cc1Br was read as StopGo RLuc -3.9% and 2A firefly 94.2%[activator].
COc1ccc(Br)cc1CNC(=O)Cn1ncn2nc(-c3cccs3)cc2c1=O was read as StopGo RLuc -9.0% and 2A firefly -13.4%.
COc1ccc(CN2CCc3c(c(=O)n4ncc(C(=O)N5CCN(c6ccccc6OC)CC5)c4n3C)C2)cc1 was read as StopGo RLuc 1.78µM* and 2A firefly 2.82µM*.
For CCOc1ccc(CCNC(=O)c2sc3ncccc3c2-n2cccc2)cc1OCC the results were StopGo RLuc -13.3% and 2A firefly -22.0%.
Screening CC(=O)Nc1ccc(C2Nc3c(C)cc(C)cc3-c3cc(C)nn32)cc1 (stereo not given) returned StopGo RLuc 15.9% and 2A firefly 23.6%.
`O=C(Nc1ccccc1F)c1nn(-c2cccc(Cl)c2)ccc1=O` gave StopGo RLuc 7.5% and 2A firefly 91.7%[activator].
For CCCNC(=O)COC(=O)c1c[nH]c2ccccc12 the results were StopGo RLuc -19.3% and 2A firefly 2.7%.
CC(C)OC(=O)c1ccc(Cn2nnc3sc4c(c3c2=O)CCCC4)cc1 was read as StopGo RLuc -8.5% and 2A firefly 10.0%.
Cn1nc(C(=O)N2CCOCC2)cc1C(=O)Nc1cccc(F)c1 was read as StopGo RLuc -3.7% and 2A firefly 132.1%[activator].
Screening O=C(CCCCl)Nc1ncc(Cc2cccc(Cl)c2)s1 returned StopGo RLuc 12.3% and 2A firefly 0.0%.
For Cc1cc(C)cc(NC(=O)CCc2c(C)nn(-c3ccc(N4CCCC4)nn3)c2C)c1 the results were StopGo RLuc 0.6% and 2A firefly 4.0%.
COc1cccc(Cn2c(CNC(=O)c3cc([N+](=O)[O-])ccc3Cl)nc3cccnc32)c1 was read as StopGo RLuc -11.8% and 2A firefly -16.9%.
CCCc1cc(=O)[nH]c(SCc2nc(-c3ccccc3F)no2)n1 was read as StopGo RLuc 10.9% and 2A firefly -13.4%.
COC(=O)CNC(=O)c1cccc(C)c1 was read as StopGo RLuc 11.5% and 2A firefly 4.2%.
`CN(Cc1ccc(C(C)(C)C)cc1)C(=O)C1CCN(C(=O)/C=C/c2ccccc2)CC1` gave StopGo RLuc -26.5% and 2A firefly -24.0%.
For O=C(Nc1ccc(Cl)c(C(F)(F)F)c1)c1ccc(Cl)cc1Cl the results were StopGo RLuc inconclusive and 2A firefly 22.2%.
For Fc1ccc(CNCCN2CCCC2)c(F)c1 the results were StopGo RLuc 7.4% and 2A firefly 16.9%.
Screening Cc1ccc(C(=O)C(Sc2ncc(C(F)(F)F)cc2Cl)c2ccc(C)cc2)cc1 (stereo not given) returned StopGo RLuc 1.9% and 2A firefly 33.9%[activator].
COc1cc(NC(=O)C2CCN(c3nnc(C)c4c(C)n(-c5ccccc5)nc34)CC2)cc(OC)c1 was read as StopGo RLuc -10.3% and 2A firefly -26.5%.
Screening CCOC(=O)c1cnc2ccc(OC)cc2c1Nc1ccc(OCc2ccccc2Cl)cc1 returned StopGo RLuc -10.5% and 2A firefly -9.8%.
COc1ccc(C(Cl)=C(c2ccc(OC)cc2)c2ccc(OC)cc2)cc1 was read as StopGo RLuc 0.2% and 2A firefly -9.8%.
Cc1nc(C)c(C(=O)O)cc1C(=O)O was read as StopGo RLuc 0.7% and 2A firefly 3.0%.
`CCn1c2c(c(=O)n3ncc(C(=O)N4CCN(c5ccc(Cl)cc5)CC4)c13)CN(Cc1ccc(OC)cc1)CC2` gave StopGo RLuc 22.4µM* and 2A firefly inconclusive.

Among those listed so far, 2 contain a cyano group:
CCc1ccc2c(Cn3nc(C)c(C)c(C#N)c3=O)cc(=O)oc2c1 was read as StopGo RLuc 4.8% and 2A firefly 11.2%.
For CC(C)(C)CC(=O)Nc1sccc1C#N the results were StopGo RLuc 7.2% and 2A firefly -1.6%.

(more compounds)
Screening O=C(CC(c1ccccc1)c1ccccc1)Oc1cc(Cl)ccc1Cl returned StopGo RLuc 6.3% and 2A firefly -1.2%.
`CC(C)CCC(C)NC(=O)Cc1coc(-c2ccccc2)n1` (stereo not given) gave StopGo RLuc -6.9% and 2A firefly 2.1%.
For CCS(=O)(=O)N1CCc2cc(C(=O)NCc3ccccc3)ccc21 the results were StopGo RLuc 7.4% and 2A firefly 15.7%.
CCC(=O)Nc1sc2c(c1C#N)CC(C)CC2 (stereo not given) was read as StopGo RLuc 2.8% and 2A firefly 137.6%[activator].
`COc1ccc(-c2nnc(SCC(=O)Nc3ccc(Cl)cc3)s2)cc1` gave StopGo RLuc 39.8%[activator] and 2A firefly 20.3%.
Screening Cc1cc(C)c(Cn2c3ccccc3c3cnn(CC(=O)NCCc4ccccc4)c(=O)c32)c(C)c1 returned StopGo RLuc -12.5% and 2A firefly 0.0%.
Screening Cc1cccc(CSc2nc(-c3cccs3)ccc2C#N)c1 returned StopGo RLuc 23.9% and 2A firefly 5.2%.
Nc1nc(-c2ccc(Cl)cc2)nn1C(=O)c1ccc(Cl)cc1 was read as StopGo RLuc -5.1% and 2A firefly 29.9%.
Cc1cc(=O)oc2cc(OCC(=O)NC(C)(C)C)ccc12 was read as StopGo RLuc 5.4% and 2A firefly 24.7%.
Screening O=C1CCC2(C(=O)NCc3ccccc3)SCCN12 (stereo not given) returned StopGo RLuc -10.9% and 2A firefly -9.9%.
Screening Cc1onc(-c2ccccc2Cl)c1C(=O)NCc1cccs1 returned StopGo RLuc 6.3% and 2A firefly 2.0%.
`CC(C)CCNC(=O)COc1ccc2c(-c3ccccc3)cc(=O)oc2c1` gave StopGo RLuc -1.5% and 2A firefly 14.5%.
O=C(NC(=O)c1ccc(F)cc1)Nc1ccc(-c2cc(C(F)(F)F)nn2-c2ccccc2)cc1 was read as StopGo RLuc -16.5% and 2A firefly -4.3%.
For COc1cccc(CNC(=O)COc2cc(O)c3c(=O)cc(-c4ccccc4)oc3c2)c1 the results were StopGo RLuc 17.9% and 2A firefly 8.6%.
Screening CC(=O)c1cccc(NC(=O)C(Sc2nnc(-c3ccoc3C)o2)c2ccccc2)c1 (stereo not given) returned StopGo RLuc -0.1% and 2A firefly 56.5%[activator].
For Fc1ccccc1CNCCOc1ccccn1 the results were StopGo RLuc 10.0% and 2A firefly 62.1%[activator].
Screening Oc1ccc(C=Nc2cccc3ccccc23)cc1 returned StopGo RLuc -5.2% and 2A firefly 16.8%.
Cc1ccccc1CC(=O)Nc1cccc2ncccc12 was read as StopGo RLuc 8.9% and 2A firefly 20.9%.
COc1ccccc1-c1csc(N2N=C(C)CC2c2cc(OC)c(OC)c(OC)c2)n1 (stereo not given) was read as StopGo RLuc 0.0% and 2A firefly 25.9%.
For CC(=O)c1cc(Cl)c(C)cc1O the results were StopGo RLuc -5.9% and 2A firefly 24.3%.

Structural class, the compounds so far containing a COOH group (2)
For Cc1c(CNC2CCCCCC2)c(C(=O)O)c(C)n1Cc1c(F)cccc1Cl the results were StopGo RLuc 5.8% and 2A firefly -21.9%.
Cc1nc(C)c(C(=O)O)cc1C(=O)O was read as StopGo RLuc 0.7% and 2A firefly 3.0%.

The list goes on:
For N#CCOc1ccc(COc2cccc(C#N)c2)cc1 the results were StopGo RLuc 7.7% and 2A firefly 111.1%[activator].
CCC1CN(C(=O)N2CCC(C(=O)NCCN(CC)CC)CC2)c2ccccc2O1 (stereo not given) was read as StopGo RLuc -13.7% and 2A firefly -22.6%.
CCCc1nnc2sc(-c3ccc4ccccc4n3)nn12 was read as StopGo RLuc 3.3% and 2A firefly 0.0%.
Screening Cc1cccc(C)c1NC(=O)COC(=O)CC1Sc2ccccc2NC1=O (stereo not given) returned StopGo RLuc 8.9% and 2A firefly 44.9%[activator].
For CCc1ccc2c(CN3CCN(Cc4ccccc4)CC3)cc(=O)oc2c1 the results were StopGo RLuc -2.3% and 2A firefly 12.5%.
Screening CC/C=C(/C)C(=O)N1CCCC(C(=O)NCC2CC2)C1 (stereo not given) returned StopGo RLuc -4.7% and 2A firefly -14.6%.
For Fc1cccc(-c2nn3c(CN4CCOCC4)nnc3s2)c1 the results were StopGo RLuc -7.7% and 2A firefly -4.0%.
For O=C1CCCC2=C1C(c1cccc(OCc3ccc(Cl)cc3)c1)C1=C(CCCC1=O)O2 the results were StopGo RLuc 5.8% and 2A firefly 10.6%.
Screening CCCN(CCC)CC(O)Cn1cc(/C=C/C(=O)c2ccc(OC)cc2)c2ccccc21 (stereo not given) returned StopGo RLuc -12.4% and 2A firefly 2.8%.
c1cc(-c2cn[nH]c2)ccn1 was read as StopGo RLuc 1.5% and 2A firefly -1.7%.
Screening OC[C@@H](O)[C@@H](O[C@@H]1O[C@H](CO)[C@H](O)[C@H](O)[C@H]1O)[C@H](O)[C@@H](O)CO returned StopGo RLuc -8.7% and 2A firefly -18.5%.
Screening Cc1ccc(SCC(=O)NC2(C#N)CCCCCC2)nc1 returned StopGo RLuc 63.3%[activator] and 2A firefly 82.6%[activator].
Screening O=C(Nc1cccnc1)N1CCN(c2cnccn2)CC1 returned StopGo RLuc 1.3% and 2A firefly 13.7%.
Screening O=C(OCC(=O)N1CCOCC1)c1ccccc1-c1nc2ccccc2s1 returned StopGo RLuc 9.9% and 2A firefly 27.9%.
`CC(C)(C)c1ccc(NC(=O)CCc2c[nH]c3ccccc23)cc1` gave StopGo RLuc -2.2% and 2A firefly 60.4%[activator].
Screening COc1ccccc1-c1nn2c(=O)cc(CN3CCN(C(=O)Nc4ccc(C)cc4Cl)CC3)nc2s1 returned StopGo RLuc -13.9% and 2A firefly 1.3%.
`Cc1cccc(C)c1NC(=O)C1CCCN1S(=O)(=O)c1cccc2nsnc12` (stereo not given) gave StopGo RLuc 5.4% and 2A firefly -15.4%.
`O=C(O)CCC(=O)N1N=C(c2ccc(F)cc2)CC1c1ccc2nccnc2c1` (stereo not given) gave StopGo RLuc -8.7% and 2A firefly -0.8%.
For COc1ccc(C(=O)ON=C2CCCCC2)cc1I the results were StopGo RLuc 6.1% and 2A firefly 11.3%.
`CC(=O)c1ccc(-n2cc(-c3ccccc3)cc2-c2ccccc2)cc1` gave StopGo RLuc 48.8%[activator] and 2A firefly 197.1%[activator].
COc1cc(Br)c(C#N)cc1OC was read as StopGo RLuc 4.5% and 2A firefly 5.9%.
Screening COC(=O)c1cccc(COc2ccc(Cl)cc2Cl)c1 returned StopGo RLuc 1.2% and 2A firefly -79.0%.
Cc1ccc(NC(=O)CSc2nc3n[nH]c(C)c3c(=N)n2-c2cccc(C)c2)cc1 was read as StopGo RLuc 4.7% and 2A firefly -23.2%.
CC(C)(C)CC(C)(C)NCc1ccc(C(=O)O)cc1 was read as StopGo RLuc 0.5% and 2A firefly -6.8%.
For CCn1c(SCC(=O)c2ccc[nH]2)nnc1-c1ccccc1 the results were StopGo RLuc 3.7% and 2A firefly 153.5%[activator].
For C=CCN(C(=O)CN1CCC(CN2CCOCC2)CC1)c1ccccc1 the results were StopGo RLuc 9.9% and 2A firefly 0.0%.
